From PubChem
MLL AF4-AF9 inh: inhibitors of AF4 peptide binding to AF9, primary screen, biochemical, AlphaScreen, biotin-AF4 peptide, FLAG-AF9, single point. Protein AF-9 (Homo sapiens), P42568. inhibition, % at 10 µM. hit rate 0.47% among 350,000. AID 651704, 2012;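 active = every replicate reaching a set inhibition limit, whatever the replicate mean, cut at about 25% in these data; inconclusive = mean inhibition reaches that limit but some replicates miss it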;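 note: 0% = plate neutral control median and 100% = total signal loss; the record names both 10 and 1 µM as test concentration; the first replicate is given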
Target sequence (P42568 whole entry, looked up): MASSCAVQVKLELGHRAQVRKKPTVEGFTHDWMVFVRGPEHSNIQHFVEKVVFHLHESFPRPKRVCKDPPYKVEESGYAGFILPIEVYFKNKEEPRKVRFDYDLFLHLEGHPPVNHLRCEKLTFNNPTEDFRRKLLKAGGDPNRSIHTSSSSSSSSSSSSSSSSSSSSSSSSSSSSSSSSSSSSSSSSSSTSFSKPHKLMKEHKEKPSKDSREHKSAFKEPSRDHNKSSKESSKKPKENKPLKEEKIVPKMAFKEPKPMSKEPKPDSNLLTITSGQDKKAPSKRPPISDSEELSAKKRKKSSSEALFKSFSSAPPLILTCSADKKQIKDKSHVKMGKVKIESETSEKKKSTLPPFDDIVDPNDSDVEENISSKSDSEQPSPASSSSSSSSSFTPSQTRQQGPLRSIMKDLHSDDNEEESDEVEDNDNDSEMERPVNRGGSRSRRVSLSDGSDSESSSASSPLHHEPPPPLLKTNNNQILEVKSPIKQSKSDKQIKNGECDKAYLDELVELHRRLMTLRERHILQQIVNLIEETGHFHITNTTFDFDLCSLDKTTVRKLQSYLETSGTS
Vif A3G: inhibitors of Vif binding to APOBEC3G peptide, primary screen, biochemical, TR-FRET, GST-Vif 1-94, biotin-A3G peptide, dose response retest (AID 1117319). inhibition, %, or IC50 in µM where a hit was titrated. hit rate 0.57% among 260,000. TR-FRET GST-Vif / biotin-A3G peptide binding; higher % means a stronger effect; test concentration not given here; strong numbers were not always called active;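 active = above the screen mean plus three standard deviations and confirmed in dose response; inconclusive = results disagree or hit not tested in dose response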;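 note: Vif residues 1-94 fused to GST binding biotinylated APOBEC3G peptide 110-148; 0% = full assay without inhibitor and 100% = GST in place of GST-Vif; retest series ran down from 100 µM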
T cruzi repl: inhibitors of intracellular T. cruzi growth, primary screen, luminescence, NIH3T3 host cells; AID 1885, 2009; inhibition, % (concentration not given with the values); T. cruzi beta-gal in NIH3T3, 90 h; hit rate 1.4% among 300,000;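 active = mean inhibition across valid replicates above about 55%, limit read from the data; inconclusive = mean below that limit but half or more replicates reach it; inactive = mean below it, under half of replicates reach it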;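 note: signal also drops with host cell toxicity which is not excluded here; 0% = plate median of DMSO wells and 100% = zero luminescence signal; higher percent means less beta-gal luminescence so fewer parasites; stock transfer was 50 nL into about 50 µL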
Beta cell apopt: inhibitors of cytokine-induced beta cell apoptosis, primary screen, luminescence; AID 435005, 2010; INS-1E cytokine-induced death, ATP luminescence, 48 h; percent of positive-control rescue, neutral wells zero; protection from apoptosis, % (test concentration not listed); hit rate 0.8% among 300,000;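 active = all replicates at 75% or more, or half of them and the mean; inconclusive = half reach 75% but not the mean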;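 note: 0% = cytokine-treated negative control wells and 100% = positive control rescue; higher means more ATP so stronger rescue from cytokine killing; wells of about 40 µL received 100 nL stock; the first replicate is given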
rRNA inh HTS: reduced GFP signal of wild-type E. coli, primary screen, bacterial rRNA inhibitor project, GFP/RFP fluorescence, OD600, single point. E. coli WT GFP vs humanized-ribosome RFP mutants, 24 h; active compounds read low; DMSO median 0, no signal -100. GFP signal change (wild-type ribosome), % (concentration not given with the values). hit rate 1.6% among 350,000. AID 720706, 2013;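 active = significant combined selectivity score with lowered wild-type GFP, culture density cut under 30%, mutant RFP and density less affected; inactive = any of these conditions unmet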; note: one replicate is shown; some compounds called inactive have numbers as strong as hits
Bfl-1 A1 inh: caspase 3/7 activation in MEF A1-2A-BIM cells, primary screen, A1 inhibitor project, cell-based, luminescence, HTS | Caspase-Glo 3/7 luminescence, 3 h; percent of clofoctol response, vehicle zero | caspase activation, % (no concentration beside the values) | hit rate 0.066% among 330,000;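 active = over half of replicate activation scores above 10%, or exactly half above 10 with the replicate mean above 10; inconclusive = replicate mean below 10 yet half the replicates above 10; inactive = over half of replicates below 10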;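 note: wells of about 30 µL received 50 nL stock; many hits fall short of the cut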
RanGTP-Impb inh: inhibitors of RanGTP-importin-beta interaction, primary screen, biochemical, FRET, CFP-Ran, YFP-importin-beta, homogeneous; Ran GTPase (GTP-bound) - importin-beta complex; cell-free CFP-Ran/YFP-importin-beta FRET ratio; inhibition, % (no concentration beside the values); hit rate 1.1% among 300,000;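 active = most replicates above 15%; inconclusive = exactly half above 15%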;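 note: 0% = DMSO wells and 100% = Ran loaded with GDP instead of GTP; wells of about 40 µL received 100 nL stock; the first replicate is given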
Calb FLC: C. albicans growth inhibition with fluconazole, primary screen, CaCi-2 strain, Alamar Blue fluorescence; C. albicans CaCi-2 (fluconazole-resistant clinical isolate) + fluconazole, 48 h; growth inhibition, % (concentration not given with the values); hit rate 0.57% among 300,000; AID 1979, 2009;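 active = most replicates above 75%; inconclusive = exactly half above 75%; inactive = most below 75%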;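 note: all wells also contain fluconazole at 8 µg/ml as a sub-toxic cotreatment; 0% = median of DMSO wells and 100% = median of geldanamycin control wells; wells of about 8 µL received 7.5 nL stock; the first replicate is given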
rRNA inh HTS OD600: further read-out of rRNA inh HTS, marked with its call; OD600 change, %; measured here: OD600 growth;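 optical density of the mix in the first replicate; 0 = DMSO median and -100 = no signal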
rRNA inh HTS RFP: recorded beside rRNA inh HTS, whose call it bears; RFP signal change, %; measured here: RFP humanized mutant strains;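 first replicate; 0 = DMSO median and -100 = no signal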
* marks the source's active call; other numbers are inactive results; ? = inconclusive; / = not tested or not shown; & = joins results of further samples.

SMILES	MLL AF4-AF9 inh	Vif A3G	T cruzi repl	Beta cell apopt	rRNA inh HTS	rRNA inh HTS OD600	rRNA inh HTS RFP	Bfl-1 A1 inh	RanGTP-Impb inh	Calb FLC
O=S(=O)(c1ccc(Cl)cc1)c1nc(-c2ccccc2F)oc1NCCCN1CCOCC1	6.2	/	8	-3	-28	-32	13	-0.1	-5.8	3
CCSc1nc(N)c2c3c(sc2n1)CN(C)CC3	/	15%	-1	-5	/	/	/	0.3	5.3	-2
CCc1c(C)sc(NC(=O)Cn2nc(C)c([N+](=O)[O-])c2C)c1C(N)=O	/	?	-2	-1	/	/	/	0.1	4.6	-15
COc1ccc(C(=O)Nc2cccc3ccccc23)cc1	2.2	8%	-11	/	-19*	-4.1*	3.8*	-2.0	-0.8	-6
O=C(COc1ccccc1)Nc1ccc(N2CCN(C(=O)c3ccco3)CC2)cc1	-3.8	2%	-2	4	-1	-9	-4.0	-0.1	-2.6	15
C=CCn1c(SCc2cc(=O)n3cc(C)ccc3n2)nnc1-c1cccc(C)c1	/	/	-5	-2	/	/	/	0.7	-3.3	5
CC(C)Cn1c(=O)c(C(=O)Nc2ccncc2)c(O)c2ccccc21	1.9	/	45	19	-26*	-9.2*	-2.9*	-0.1	-0.1	-9
Cc1ccc2nc3nc(NCC4CCCO4)c(C(=O)NC4CCCCC4)cc3c(=O)n2c1 (stereo unspecified)	/	6%	10	-1	/	/	/	-0.2	177*	-2
O=C(C1CCCN(S(=O)(=O)c2ccccc2)C1)N1CCCCC1 (stereo unspecified)	0.7	/	0	-6	-1	-12	1.0	1.0	7.6	-7
CN(CCO)c1cc(N2CCN(C(=O)c3ccco3)CC2)c2nonc2c1[N+](=O)[O-]	3.1	/	3	-3	24	0	22	0.6	-2.7	-2
COc1ccc(OCc2cc(C(=O)N(C)Cc3nccn3C)no2)c2ccccc12	14	/	17	0	-14	-23	-1.3	0.0	6.8	-3
CC(=O)OCc1nc2sc3c(c2c(=O)[nH]1)CCCC3	/	23%	-4	-3	/	/	/	1.3	1.9	5
CCOc1ccc2c(c1)c(C(C)=O)c(C)n2-c1ccccc1	/	-5%	11	-1	/	/	/	-0.6	?	-1
CC(=O)Nc1ccc(NC(=O)C(C)OC(=O)C2CC(=O)N(CCc3ccccc3)C2)cc1 (stereo unspecified)	-1.2	-1%	-6	-5	25	11	1.5	-0.8	2.6	0
CC1(c2ccccc2)NC(=O)N(CC(=O)N(c2ccccc2)C2CCS(=O)(=O)C2)C1=O (stereo unspecified)	-2.1	-8%	/	-17	5	15	-2.1	-0.2	/	/
C[C@H](CO)N1C[C@H](C)[C@@H](CN(C)S(C)(=O)=O)Oc2c(NC(=O)c3ccncc3)cccc2C1=O	-2.6&-1.9	/	/	3	0&-11	12&-19	-2.7&16	1.4	/	/
CCCC(=O)NC(c1ccc(N(C)C)cc1)c1c(O)ccc2ccccc12 (stereo unspecified)	/	10%	2	-6	/	/	/	0.2	-0.9	-1
CC(=O)N1N=C(c2ccc(Br)cc2)CC1c1cn(C)c2ccccc12 (stereo unspecified)	/	-34%	18	-9	/	/	/	-0.4	?	1
CC(=O)Nc1ccc(NC(=O)CS(=O)(=O)c2cn(CC(=O)N3CCC(C)CC3)c3ccccc23)cc1	-9.5	-12%	-3	6	3	1	-0.6	-1.4	0.1	-7
CN(C)CCNc1ccc(-c2nn(C)c(=O)c3ccccc23)cc1[N+](=O)[O-]	3.8	14%	72*	-9	35	1	-1.2	0.6	-3.1	-14
O=C(Nc1cccc(NC(=O)c2ccco2)c1)c1cccc(Br)c1	1.3	/	10	11	-7	-9	-10	-0.3	2.9	23
C=CCN(c1ccccc1)S(=O)(=O)c1ccc2c(c1)oc(=O)n2C	-2.9	-8%	-1	1	1	7	-8.5	0.7	-3.6	-3
CCOC(=O)C1(Cc2ccccc2)CCN(Cc2ccc(C3CCCCO3)s2)CC1 (stereo unspecified)	12	10%	25	-5	-26	-23	7.8	-0.2	2.7	-7
COc1ccc2c(c1)CCCC2NS(=O)(=O)OCC(Cl)(Cl)Cl (stereo unspecified)	-0.4	/	5	-1	-14	-21	-8.6	-0.5	3.2	-3
N=c1n(CC(=O)O)c2ccccc2n1Cc1ccccc1Cl	/	-9%	0	-5	/	/	/	0.8	3.0	1
O=C(O)/C=C/C(=O)Nc1c(F)cccc1F	8.3	-4%	-8	-1	14	5	-0.8	0.7	-0.1	-8
Cc1ccccc1/C=N/NC(=O)c1ccc(-n2cnnn2)cc1	3.1	-1%	/	-3	3	16	-1.2	-0.1	/	/
O=C(c1cccc(COc2cccc3ccccc23)c1)N1CCCC1	/	-1%	12	-5	/	/	/	-0.4	6.4	3
Oc1cccc(/C=N/Nc2cc(N3CCCC3)nc(N3CCCC3)n2)c1	/	/	19	3	/	/	/	0.0	21*	-5
O=S(=O)(Nc1ccc(OC(F)(F)F)cc1)c1cccc2nonc12	2.4	3%	-2	7	-39*	-16*	-11*	0.1	-1.3	-4
Cc1cc(NC(=O)Cc2csc(-c3ccccc3)n2)ccc1Br	/	5%	-15	-7	/	/	/	0.9	-0.6	0
CC(C)(C)N1CC2(c3ccccc3)CN(C(C)(C)C)CC(c3ccccc3)(C1)C2=O	/	8%	-1	2	/	/	/	-1.5	3.0	-13
COc1ccc(C(=O)NCCCN2CCCC2=O)cc1	/	2%	7	1	/	/	/	-0.6	-1.9	1
O=C(CSc1nnc(-c2ccncc2)o1)Oc1ccccc1	/	-3%	0	-3	/	/	/	0.5	0.1	15
CCc1cc(=O)oc2c(C)c(OCC(=O)N3CC[C@@]4(O)CCCC[C@H]4C3)ccc12	-2.2	/	18	/	/	/	/	-0.2	-4.3	0
CCOc1ccc(/C=C2\N=C(c3cccs3)OC2=O)cc1OC	/	/	-4	-8	/	/	/	0.3	-1.3	-5
O=C(NCCSc1c[nH]c2ccccc12)C1CC1	-6.0	-1%	-23	3	2	-1	0.3	0.0	5.3	-2
COc1ccccc1N1CCN(C(=O)c2cc3n(n2)C(C(F)(F)F)CC(c2ccco2)N3)CC1 (stereo unspecified)	/	4%	2	-11	/	/	/	0.7	-1.2	-4
CC(=O)Nc1nc(SCc2ccc(Cl)cc2Cl)n[nH]1	/	?	-1	-6	/	/	/	1.0	-1.7	5
CN(C)c1ccc(-c2cc3ccccc3c(=O)o2)cc1	-1.7	/	/	-5	2	14	-4.1	-6.5	/	/
O=C(NCc1ccco1)/C(=C\c1ccc(F)cc1)NC(=O)c1ccco1	1.3	-4%	-3	-1	1	2	-0.6	-0.9	4.1	4
COc1ccc(S(=O)(=O)NC(C)C(=O)N2CCCCCC2)cc1 (stereo unspecified)	0.5	1%	-10	-2	10	9	-1.3	0.4	2.2	/
COc1ccccc1N(C)S(=O)(=O)c1ccc(C(=O)Nc2cccc(Br)c2)cc1	-0.5	1%	/	11	-34*	-27*	-5.6*	-1.3	/	/
CC(=O)Nc1cc(C(=O)N2CCCC2)ccc1S(=O)(=O)c1ccc(Cl)cc1	/	3%	-21	-8	/	/	/	0.4	8.1	-20
O=C(Nc1ccccc1[N+](=O)[O-])c1cc2ccccc2nc1Cl	-2.4	14%	-10	-8	11	5	0.1	-0.4	0.3	-10
Cc1cc(C(=O)O)cc(S(=O)(=O)N2CCOCC2)c1C	/	1%	0	-7	/	/	/	1.9	8.1	?
CCCCN1CN(S(=O)(=O)c2ccc(OC)cc2)c2nc3ccccc3nc21	5.9	-3%	13	-5	-25	-26	21	0.0	3.0	/
NNC(=O)CN(CCc1ccccc1)S(=O)(=O)c1ccc(Cl)cc1	-1.6	/	6	-3	-4	-8	-1.0	0.1	-1.3	5
COc1cc(NC(=O)COC(=O)c2ccc(S(=O)(=O)N3CC(C)CC(C)C3)cc2)c(C)cc1[N+](=O)[O-] (stereo unspecified)	/	/	-8	-1	/	/	/	-0.3	-3.7	-3
CNC(C)c1cc(OC)ccc1OC (stereo unspecified)	/	3%	-35	-2	/	/	/	1.4	-2.8	-17
O=c1c2ccccc2nc(SCc2ccc([N+](=O)[O-])cc2)n1-c1ccccc1	/	2%	34	15	/	/	/	0.7	2.8	5
O=C(NC1CCCCC1)N1CCN(c2nc(-c3ccccc3)cs2)CC1	0.7	3%	-10	2	-8	-11	4.6	0.4	3.3	-14
O=C(NC(=S)Nc1cc(C(F)(F)F)ccc1N1CCOCC1)c1ccco1	4.2	3%	12	0	2	2	-1.5	1.0	1.0	6
Cc1ccc(=O)n(C(C(=O)NCc2ccco2)C(=O)c2ccc(F)cc2)c1 (stereo unspecified)	/	0%	-14	0	/	/	/	0.2	-0.9	14
O=C(NC(c1ccccc1)c1ccccc1)N1CCOCC1	-1.0	0%	0	-2	14	8	1.4	-0.1	?	4
CCOC(=O)N1CCc2c(sc(NC(=O)CN3CCOCC3)c2C(=O)Nc2ccccc2)C1	-0.1	-11%	6	4	-18	2	16	-0.2	-2.3	-1
COc1cccc(NC(=O)Cn2cc(C(=O)C3CC3)c3ccccc32)c1	0.8	1%	-11	-7	7	8	0.1	-0.2	?	-8
COc1ccc(CCNC(=O)CCc2nc3sc4c(c3c(=O)[nH]2)CCCC4)cc1	-0.3	/	13	1	1	7	-1.4	0.2	1.1	8
Cc1cc(C)n(C2=NS(=O)(=O)c3ccccc32)n1	/	1%	-8	-2	7	9	-3.6	0.4	2.2	13
COc1ccc(CNC2CCCc3ccccc32)c(OC)c1 (stereo unspecified)	0.4	/	1	3	8	6	16	0.0	-5.2	4

Carrying on:
SMILES	MLL AF4-AF9 inh	Vif A3G	T cruzi repl	Beta cell apopt	rRNA inh HTS	rRNA inh HTS OD600	rRNA inh HTS RFP	Bfl-1 A1 inh	RanGTP-Impb inh	Calb FLC
Cc1ccccc1C(=O)NC(C(N)=O)P(=O)(OC(C)C)OC(C)C (stereo unspecified)	-2.8	5%	-10	-2	-10	-4	0.6	-0.5	-1.1	-1
O=C(NCCN1CCOCC1)C(=O)c1c[nH]c2ccccc12	1.4	/	12	2	7	17	-2.0	0.9	-3.6	8
Cc1ccc(Nc2nc(Cl)nc(NC(C)(C)C)n2)cc1	7.3	/	26	/	-15	-54	11	0.1	2.5	94*
O=C1OCCC1Sc1nnc(-c2ccc(Cl)cc2Cl)o1 (stereo unspecified)	0.6	-8%	1	3	1	-3	2.5	-3.1	-0.1	1

Some of the compounds tested, so the mix of outcomes need not match the whole.
